Six1-Eya2 inh: blocks human Six1 binding to Eya2; Q15475+O00167; activity change, % (concentration not given with the values); AlphaScreen GST-Six1/His-Eya2 binding, biochemical; hits give low values; control for the full effect not named in the record; actives 0.56% (n = 360,000); in the data active = activity change below about -65%; inconclusive = about -30% to -65%; inactive = above about -30%; further: on the % scale 0 is the no-effect control and ±100 the full control effect
Target sequence (O00167 whole entry, looked up): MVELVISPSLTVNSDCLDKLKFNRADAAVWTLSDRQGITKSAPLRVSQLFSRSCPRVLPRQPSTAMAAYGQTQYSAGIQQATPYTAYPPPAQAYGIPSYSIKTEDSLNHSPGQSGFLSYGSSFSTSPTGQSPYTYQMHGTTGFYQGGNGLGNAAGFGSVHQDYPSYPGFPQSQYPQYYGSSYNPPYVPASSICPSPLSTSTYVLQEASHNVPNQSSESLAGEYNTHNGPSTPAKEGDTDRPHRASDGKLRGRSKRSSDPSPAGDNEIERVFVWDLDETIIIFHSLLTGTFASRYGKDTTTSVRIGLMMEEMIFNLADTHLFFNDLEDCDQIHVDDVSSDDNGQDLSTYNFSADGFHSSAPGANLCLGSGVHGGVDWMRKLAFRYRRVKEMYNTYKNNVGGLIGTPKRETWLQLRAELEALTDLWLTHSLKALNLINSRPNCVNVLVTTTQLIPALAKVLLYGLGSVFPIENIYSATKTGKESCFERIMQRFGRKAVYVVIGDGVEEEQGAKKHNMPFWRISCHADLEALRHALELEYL
Target sequence (Q15475 whole entry, looked up): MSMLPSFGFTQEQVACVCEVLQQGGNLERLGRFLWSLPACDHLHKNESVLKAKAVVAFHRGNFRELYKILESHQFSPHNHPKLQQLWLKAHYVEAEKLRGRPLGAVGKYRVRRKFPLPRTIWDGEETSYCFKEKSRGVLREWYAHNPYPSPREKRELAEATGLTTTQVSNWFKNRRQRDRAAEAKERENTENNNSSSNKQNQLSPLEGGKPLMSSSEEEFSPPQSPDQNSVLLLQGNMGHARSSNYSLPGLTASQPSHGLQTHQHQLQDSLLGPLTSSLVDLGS
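AlphaScreen with GST-Six1 and His-Eya2 (5X mix: 250 nM and 500 nM), glutathione donor and nickel acceptor beads; buffer 50 mM Tris pH 8.0, 300 mM NaCl, 1 mM TCEP; 1 h at 37 C in the dark.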
PINK1 expr mod: changes PINK1 expression. PINK1 immunofluorescence, high-content cytometry, 24 h. Potency, µM (top dose mostly 76.6 µM), for the others: at the top dose activation (PINK1 increase), usual class: activators. actives 0.2% (n = 410,000); active = well fitted activation curve with a large enough effect; inconclusive = small, poorly fitted or top-dose-only effect; inactive = flat fitted curve, though single readings scatter; cell line not stated here;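 further: potency means the concentration at half of the fitted maximal effect; % of control where 0% means no effect; nearly all actives have a fitted effect of over 65% in size; a mitochondrial uncoupler was the plate control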
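Measures PINK1 amount and localization on or inside mitochondria by immunofluorescence. Stable cells get compounds at 5 concentrations for 24 hours before fixation and staining; CCCP controls included.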
D2 agonist: activates the human D2 dopamine receptor | P14416 | DiscoveRx PathHunter D2 beta-arrestin, luminescence, 90 min; 100% = 57 uM dopamine signal | activation, % (no concentration beside the values) | actives 0.084% (n = 360,000); in the data active = activation above about 40%; inconclusive = about 15% to 40%; inactive = below about 15%; further: compound concentration not given in the record; the text of the record calls up to 30% inactive
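Agonist mode: compounds alone added to overnight-plated D2 PathHunter cells for 90 min at 37 C, with 57 uM final dopamine (EC100) defining full response. Beta-arrestin recruitment detected by chemiluminescent reagent, read after 1 h at ambient temperature.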
TRPML1 ag: agonists of human TRPML1 channel; Q9GZU1; TRPML1-expressing cells, Ca2+ dye fluorescence, FDSS; host cell line not named in the record; reference of the full effect not given here; activation, % (test concentration not listed); actives 0.12% (n = 410,000); AID 624414; in the data active = activation above about 50%; inconclusive = about 30% to 50%; inactive = below about 30%; further: 0% is about no effect; the text of the record puts the active cut at 80%
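In this qHTS format, compounds were pin-transferred onto Ca8-dye-loaded TRPML1-DL cells induced with Tet overnight, and intracellular Ca2+ fluorescence was recorded kinetically for 110 s after a 10 s baseline. A subsequent 4uM final 54-4 (EC80) addition followed by a second 110 s read served as the antagonist phase.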
D2 PAM: human D2 receptor positive allosteric modulation; P14416; DiscoveRx D2 beta-arrestin cells, luminescence, 90 min; 100% = 57 uM dopamine signal; potentiation, % (no concentration beside the values); actives 0.23% (n = 360,000); active = potentiation of 50% or more; inconclusive = 30% to 50%; inactive = 30% or less;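 further: compound concentration not given in the record; tested on top of an EC20 dose of dopamine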
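D2 cells co-treated with compound plus 50 nM dopamine (EC20) for 90 min at 37 deg C to detect potentiation. Beta-arrestin recruitment was read as enzyme-fragment luminescence after 1 h at ambient temperature. Full response was set by 57 uM dopamine.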
TRPML1 blocker: human mucolipin-1 channel inhibition | TRPML1-inducible cells, Ca2+ dye fluorescence, FDSS; hits give low values; inhibition of EC80 agonist-evoked calcium signal | activity change, negative = inhibition, % (test concentration not listed) | actives 0.02% (n = 390,000); in the data active means activity change below about -50%; inconclusive means about -30% to -50%; inactive means above about -30%;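 further: stimulus is agonist 54-4 at its EC80 concentration; on the % scale 0 is the no-effect control and ±100 the full control effect; compound concentration not given in the record; the text of the record puts the active cut at -80%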
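Tet-induced TRPML1-DL cells loaded with Ca8 no-wash calcium dye were read kinetically on FDSS. Compound addition was followed by EC80 agonist 54-4 (4 uM final); inhibition was read over 110 s.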
An asterisk follows results filed as active; ? = inconclusive; . = no result given; & = joins results of further samples; [ ] = dose if it differs, or a comment.

SMILES	Six1-Eya2 inh	PINK1 expr mod	D2 agonist	TRPML1 ag	D2 PAM	TRPML1 blocker
COc1ccc(OC)c(CN2CCN(C(=O)c3cc(S(=O)(=O)N4CCOCC4)ccc3C)CC2)c1	-1.6	1.4%	3.1	2.5	-1.1	8.2
CN(C(=O)COC(=O)c1ccc([N+](=O)[O-])cc1)c1ccccc1	-1.6	0.1%	0.6	0.4	-1.8	11.5
Cc1cccc(OCC(O)CN2CCN(S(=O)(=O)c3ccc(C)cc3C)CC2)c1 (stereo unspecified)	-7.2	0.7%	-2.7	1.7	-12.1	19.0
Cn1c(C(C(=O)NCC2CCCO2)N(C(=O)Cn2nnc3ccccc32)C2CCCCC2)nc2ccccc21 (stereo unspecified)	3.7	32.1%[38.3 µM]	-2.6	-0.8	5.0	-8.0
CC(C)c1ccc(OCC(O)CN2CCCC2)cc1 (stereo unspecified)	-1.9	-0.6%	-1.2	0.5	-5.3	15.7
COc1ccc(CN2CCN(S(=O)(=O)c3ccc(NC(C)=O)cc3)CC2)cc1	-2.2	-0.5%	-1.1	1.0	-9.3	1.0
O=C(Nc1ccc2c(c1)nc1n2CCCCC1)c1cc(S(=O)(=O)N2CCOCC2)ccc1Cl	-6.1	0.4%	-1.1	-0.5	4.2	-3.0
CCN1C(=O)/C(=C\C(=O)c2cccs2)c2cc(Br)ccc21	1.5	-1.0%	?	0.8	-12.9	17.7
N/C(Cc1nc(-c2ccc(F)cc2)cs1)=N\O	4.2	1.4%	4.8	0.6	3.0	7.8
O=C(NCCSCc1cccc(Cl)c1)C1CCN(S(=O)(=O)Cc2ccccc2)CC1	.	1.5%	.	-0.5	.	3.9
CCOC(=O)C1CCN(c2nc(-c3ccc(Br)cc3)nc3ccccc23)CC1	33.6	0.9%&7.3%	-7.9	-0.6&1.3	-15.4	-10.7&19.1
Cc1nnc2ccc(-c3ccc(NC(=O)c4ccco4)cc3)nn12	-5.0	0.4%	-0.2	0.0	0.9	13.9
Cc1ccc(S(=O)(=O)Nc2ccc(N3CCOCC3)cc2)cc1[N+](=O)[O-]	-13.0	1.4%	2.5	0.0	13.7	6.5
O=C(Cn1ccc2cc(S(=O)(=O)N3CCCCCC3)ccc21)NCc1cccc(Cl)c1	.	2.7%	.	2.4	.	-13.5
O=C(NC1CC1)c1ccc2nc([C@H]3C[C@H](O)[C@@H](CO)O3)[nH]c2c1	0.9	1.2%	-1.9	-0.4	1.7	.

Ordered by length of the SMILES (high to low): three of the compounds above.
SMILES	Six1-Eya2 inh	PINK1 expr mod	D2 agonist	TRPML1 ag	D2 PAM	TRPML1 blocker
O=C(NC1CC1)c1ccc2nc([C@H]3C[C@H](O)[C@@H](CO)O3)[nH]c2c1	0.9	1.2%	-1.9	-0.4	1.7	.
Cc1ccc(S(=O)(=O)Nc2ccc(N3CCOCC3)cc2)cc1[N+](=O)[O-]	-13.0	1.4%	2.5	0.0	13.7	6.5
CCN1C(=O)/C(=C\C(=O)c2cccs2)c2cc(Br)ccc21	1.5	-1.0%	?	0.8	-12.9	17.7

Returning to the listing; the five compounds before the break are reprinted first.
SMILES	Six1-Eya2 inh	PINK1 expr mod	D2 agonist	TRPML1 ag	D2 PAM	TRPML1 blocker
CCOC(=O)C1CCN(c2nc(-c3ccc(Br)cc3)nc3ccccc23)CC1	33.6	0.9%&7.3%	-7.9	-0.6&1.3	-15.4	-10.7&19.1
Cc1nnc2ccc(-c3ccc(NC(=O)c4ccco4)cc3)nn12	-5.0	0.4%	-0.2	0.0	0.9	13.9
Cc1ccc(S(=O)(=O)Nc2ccc(N3CCOCC3)cc2)cc1[N+](=O)[O-]	-13.0	1.4%	2.5	0.0	13.7	6.5
O=C(Cn1ccc2cc(S(=O)(=O)N3CCCCCC3)ccc21)NCc1cccc(Cl)c1	.	2.7%	.	2.4	.	-13.5
O=C(NC1CC1)c1ccc2nc([C@H]3C[C@H](O)[C@@H](CO)O3)[nH]c2c1	0.9	1.2%	-1.9	-0.4	1.7	.
CCCCC(=O)NCCNc1nc2c(c(=O)n(C)c(=O)n2C)n1Cc1ccc(F)cc1	9.3	1.0%	-1.1	0.2	-45.7	-8.4
COc1cc(/C=C/c2ccc3cccc([N+](=O)[O-])c3n2)ccc1OCC(=O)O	?	11.2%	-3.1	0.0	-11.8	35.1
CCOc1cc(S(=O)(=O)NCc2cccnc2)c(C)cc1C	4.4	-1.7%	-5.2	1.4	-12.4	10.4
C[C@H](CO)N1C[C@H](C)[C@@H](CN(C)S(=O)(=O)c2ccc(F)cc2)OCc2cnnn2CCCC1=O	-2.4	2.5%	-9.2	-0.8	-1.8	30.3
CC(C)NS(=O)(=O)c1ccc(OCC(=O)Nc2ccc(F)cc2F)cc1	0.4	-2.4%[38.3 µM]	0.6	0.1	-2.1	-3.3
COc1ccc(Cc2nnc(NC(=O)CSc3ccc(C)cc3)s2)cc1OC	-3.4	-0.8%	-3.4	2.0	20.6	1.1
O=C(Nc1ccc2nc(-c3ccc4nc[nH]c4c3)[nH]c2c1)c1cccs1	?	-0.5%	-0.3	2.5	-11.0	19.9
CCCS(=O)(=O)N1CCCC(C(=O)Oc2ccc(C)c(C)c2)C1 (stereo unspecified)	-13.0	-0.4%	7.5	1.0	-2.4	30.0
CCOc1ccccc1Nc1nc(-c2cccnc2)cs1	-27.1	-1.2%	-3.1	0.9	-15.5	6.0
COc1ccc(N(CCC#N)C(=O)/C(C#N)=C/c2cccs2)cc1	-5.2	0.5%	2.9	-0.6	-2.5	-9.9
O=C1c2ccccc2[C@@H]2Cc3csc[n+]3[C@H]12	14.0	-0.7%	.	-0.4	.	.
CCOc1ccc(/C=N/NC(=O)c2ccc(Cn3cc([N+](=O)[O-])cn3)o2)cc1	-1.4	-1.0%	0.8	-0.6	-2.5	10.3
S=c1[nH]nc(C2CCCCC2)n1/N=C/c1ccc(Br)cc1	-1.1	1.3%	12.7	3.2	-3.6	38.8
CCCN(Cc1nnc(-c2ccccc2Cl)o1)C(=O)c1cccc(S(=O)(=O)N2CCOCC2)c1	-1.0	1.3%	6.8	0.7	-1.0	-14.4
c1ccc2c(c1)ncn2-c1ccc(-c2ccnc(-c3ccncc3)n2)cc1	3.4	-0.5%	-1.5	-0.9	-10.5	-7.8
O=C(Cc1ccccc1)Nc1cccc(-c2cn3cccnc3n2)c1	.	-0.6%	.	-0.5	.	-2.2
O=C1CC(=C(c2ccccc2)c2ccccc2)C(=O)N1CCN1CCN(c2cccc(Cl)c2)CC1	-21.8	-0.8%	3.8	1.2	-10.3	-4.3
O=C(CN(CC1CCCO1)C(=O)CNS(=O)(=O)c1ccc(F)cc1)NCCc1ccccc1 (stereo unspecified)	0.5	1.2%	2.2	-0.7	1.2	-1.1
CCC(C)[C@H](NC(=O)NCc1ccc(Cl)cc1)C(=O)OC (stereo partly specified)	-8.5	?	-3.6	0.3	-2.3	-9.2
COc1cc(C2NC(=O)NC(C)=C2C(=O)OC2CCC(C)CC2)ccc1O (stereo unspecified)	-8.7	1.8%	-3.6	0.3	-6.3	-11.8
CN(CC(=O)Nc1cc(Cl)cc(Cl)c1)Cc1cccs1	14.3	7.7%	-0.8	4.0	-4.9	-0.2
O=C(Nc1ccccc1)c1cc(C2CCCCN2C(=O)OCc2ccccc2)on1 (stereo unspecified)	-0.7	-1.1%	-6.2	4.4	-4.5	.
O=C(Nc1ccccc1Cl)NC1(C(=O)N2CCC(O)CC2)CCCCC1	-3.8	-0.1%	0.9	1.0	-1.1	6.3
Cc1[nH][nH]c(=O)c1/C=N/N1CCOCC1	1.0	0.9%	-3.4	0.0	0.8	-1.5
Cc1ccc(S(=O)(=O)N(CC(=O)NCc2ccncc2)Cc2ccccc2F)cc1	16.0	-0.8%	-2.0	-0.3	-6.8	21.2
Cc1nnc(SCC(=O)Nc2ccc([N+](=O)[O-])cc2)n1CC1CCCO1 (stereo unspecified)	-1.2	0.2%	-1.7	0.6	-3.9	3.3
O=C(CSc1nc2ccccc2c(=O)n1CCCN1CCOCC1)Nc1ccc(F)c(Cl)c1	-2.8	1.4%	5.2	0.2	0.6	28.3
COc1cccc(C(=O)Nc2cccnc2)c1	6.5	-0.9%	0.6	0.2	10.6	-21.8
CN1CCN(NC(=O)c2cn(-c3ccccc3)nc2-c2cccs2)CC1	-4.2	-0.1%	-0.1	0.0	-6.1	23.7
CC(C(=O)NCc1ccc2c(c1)OCO2)c1ccc([N+](=O)[O-])cc1 (stereo unspecified)	2.6	3.2%	-1.1	1.7	-8.1	5.8
COc1ccc(Cc2c(Cl)ncnc2Cl)cc1	15.7	-3.0%	-1.1	1.7	-5.0	8.2
CCOc1cc(/C=C2\SC(=S)N(NC(=O)c3cccnc3)C2=O)ccc1O	?	-2.6%	-10.1	4.8	-21.1	-14.8
O=C(NCCc1ccccn1)C(F)(F)C(F)(F)C(F)(F)C(F)(F)C(F)(F)C(F)(F)C(F)(F)C(F)F	7.3	4.1%	1.4	0.2	-8.2	3.2
Brc1ccc(CSc2ccc3nnc(-c4cccnc4)n3n2)cc1	?	2.8%	-1.2	2.1	4.9	17.7
COc1cccc(CN2C(=O)c3ccccc3Sc3ccc(C(=O)NCCc4ccc(Cl)cc4)cc32)c1	.	1.4%	.	0.7	.	-8.1
O=C(COC(=O)c1ncc(Cl)c(Cl)c1Cl)NC(=O)NCc1ccccc1	-1.3	7.9%	-4.0	0.0	-2.5	-0.7
O=C(Nc1ccc2c(c1)OCCO2)c1cccc(Cl)c1	-5.5	-1.0%	-5.0	0.8	-11.8	-2.1

Screening data as filed in PubChem BioAssay.

Random draw from the library; about 1% have a hit in one of these screens.
